Assay outcomes from PubChem.
HIV Env fusion = blocks HIV Env-driven cell-cell fusion; actives 1.1% (n = 360,000); inhibition, % at 12.3 µM; AID 651610; HeLa-JRFL Env/CEM21 cell fusion, luciferase;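 active = mean replicate inhibition score of at least 50 and every replicate individually at or above 50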;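 note: 0% = plate neutral controls and 100% = maraviroc near 300 nM; one replicate is shown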
UUG fidelity = modulators of start codon recognition fidelity in yeast; S. cerevisiae UUG-firefly luciferase reporter, luminescence/redox ratio; activity score, % at 18.7 µM; actives 0.13% (n = 350,000); AID 602363;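 active = replicate mean at a twofold rise or more, about +100% in these data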;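 note: firefly luciferase made from a UUG start codon reports start codon fidelity; reporter light over untreated wells divided by growth signal over untreated wells; some hits fall short of that in this replicate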
* hit, by the source's call; [ ] = dose if it differs, or a comment.

[1] CN(C)C(=O)C[C@@H]1C=C[C@H](NC(=O)NC2CCCCC2)[C@@H](CO)O1
[2] C[C@H](CO)N1C[C@H](C)[C@H](CN(C)Cc2ccc(C(=O)O)cc2)Oc2ccc(NS(=O)(=O)c3ccc(F)cc3)cc2CC1=O
[3] C[C@@H]1CN([C@@H](C)CO)C(=O)c2cccc(NC(=O)Nc3ccc(C(F)(F)F)cc3)c2O[C@H]1CN(C)C(=O)Nc1ccc(C(F)(F)F)cc1
[4] CNC[C@H]1OCCCC[C@@H](C)Oc2ccc(NC(=O)NC3CCCCC3)cc2C(=O)N([C@H](C)CO)C[C@H]1C
[5] C[C@H](CO)N1C[C@H](C)[C@H](CN(C)C(=O)NC2CCCCC2)Oc2ccc(NC(=O)NC3CCCCC3)cc2CC1=O
[6] O=C(C[C@@H]1C[C@H]2c3cc(NC(=O)Cc4ccncc4)ccc3O[C@H]2[C@H](CO)O1)NCc1cc(F)ccc1F
[7] CC(C)NC(=O)Nc1cccc2c1O[C@@H](CN(C)CC1CCCCC1)[C@@H](C)CN([C@@H](C)CO)C2=O
[8] C[C@H](O)C#Cc1cnc2c(c1)C(=O)N([C@@H](C)CO)C[C@@H](C)[C@H](CN(C)C(=O)c1ccccc1)O2

assay / entry	1	2	3	4	5	6	7	8
HIV Env fusion	-6[16.7 µM]	-12[16.7 µM]	14[16.7 µM]	-10[16.7 µM]	14[16.7 µM]	16[16.7 µM]	-72[16.7 µM]	1[16.7 µM]
UUG fidelity	-7	2	-16	13	0	-22	-13	-5

[9] COc1cccc(-c2cnc3c(c2)C(=O)N([C@@H](C)CO)C[C@H](C)[C@H](CN(C)C(C)=O)O3)c1
[10] CC(C)C#Cc1cnc2c(c1)C(=O)N([C@H](C)CO)C[C@@H](C)[C@H](CN(C)C(=O)c1ccccc1F)O2
[11] CCNC(=O)C[C@@H]1CC[C@H]2[C@H](COc3ccc(NC(=O)c4ccccc4)cc3C(=O)N2C)O1
[12] COc1ccc(-c2cn(CC[C@@H]3CC[C@H](NS(=O)(=O)c4ccccc4C)[C@@H](CO)O3)nn2)cc1
[13] CCC(=O)Nc1ccc2c(c1)C(=O)N(C)[C@@H]1CC[C@H](CC(=O)NCCOC)O[C@@H]1CO2
[14] Cc1ccc(S(=O)(=O)N[C@@H]2C=C[C@@H](CC(=O)N3CCN(c4ccccc4)CC3)O[C@@H]2CO)cc1
[15] O=C(Nc1ccccc1)Nc1ccc2c(c1)[C@H]1C[C@H](CC(=O)N3CCOCC3)O[C@H](CO)[C@H]1O2
[16] C[C@H]1CN([C@@H](C)CO)C(=O)c2cc(NC(=O)Nc3ccc4c(c3)OCO4)ccc2O[C@H]1CN(C)Cc1ccc(-c2ccccc2)cc1

assay / entry	9	10	11	12	13	14	15	16
HIV Env fusion	-1[16.7 µM]	-33[16.7 µM]	-2[16.7 µM]	4[16.7 µM]	13[16.7 µM]	13[16.7 µM]	1[16.7 µM]	13[16.7 µM]
UUG fidelity	0	10	5	-9	0	6	4	-3

[17] Cc1noc(C)c1NC(=O)Nc1ccc2c(c1)C(=O)N([C@H](C)CO)C[C@H](C)[C@@H](CN(C)S(=O)(=O)c1ccc(F)cc1)OCCCC[C@@H](C)O2
[18] COCC(=O)N(C)C[C@@H]1Oc2ncc(-c3cccc(OC)c3)cc2C(=O)N([C@@H](C)CO)C[C@@H]1C
[19] Cc1cc(C(=O)Nc2cccc3c2O[C@@H](CN(C)CC2CCCCC2)[C@H](C)CN([C@H](C)CO)C3=O)n(C)n1
[20] CCCNC(=O)C[C@H]1CC[C@H]2[C@H](COc3ccc(NC(=O)c4cccc(C(F)(F)F)c4)cc3C(=O)N2C)O1
[21] C[C@H](CO)N1C[C@H](C)[C@H](CN(C)Cc2ccc3c(c2)OCO3)OCCCC[C@H](C)Oc2ccc(NC(=O)Nc3ccccc3)cc2C1=O
[22] COc1ccc(S(=O)(=O)Nc2ccc3c(c2)C(=O)N([C@H](C)CO)C[C@H](C)[C@@H](CN(C)S(=O)(=O)c2ccc(OC)cc2)OCCCC[C@H](C)O3)cc1
[23] COCCNC(=O)C[C@@H]1C[C@@H]2c3cc(NC(=O)COC)ccc3O[C@@H]2[C@H](CO)O1
[24] C[C@@H]1CN([C@H](C)CO)C(=O)Cc2cc(NC(=O)CCN3CCOCC3)ccc2O[C@@H]1CN(C)S(C)(=O)=O

assay / entry	17	18	19	20	21	22	23	24
HIV Env fusion	-6[16.7 µM]	1[16.7 µM]	-5[16.7 µM]	22[16.7 µM]	52[16.7 µM]	-94[16.7 µM]	3[16.7 µM]	-9[16.7 µM]
UUG fidelity	-20	-1	3	-2	7	-12	-17	3

[25] C[C@H](O)C#Cc1ccc2c(c1)O[C@@H](CN(C)CC1CC1)[C@@H](C)CN([C@@H](C)CO)S2(=O)=O
[26] CCC(=O)N(C)C[C@H]1Oc2cc(C#CC3CCCC3)ccc2S(=O)(=O)N([C@@H](C)CO)C[C@@H]1C
[27] O=C(C[C@@H]1C[C@H]2c3cc(NC(=O)CC4CC4)ccc3O[C@H]2[C@@H](CO)O1)NCc1ccc2c(c1)OCO2
[28] CCCC(=O)Nc1ccc2c(c1)OC[C@@H](C)N(Cc1ccncc1)C[C@@H](C)[C@@H](OC)CN(C)C2=O
[29] C[C@@H]1CN([C@H](C)CO)C(=O)Cc2cc(NS(=O)(=O)c3ccc(Cl)cc3)ccc2O[C@H]1CN(C)Cc1ccc(Oc2ccccc2)cc1
[30] C[C@H]1CCCCO[C@H](CN(C)C(=O)NC2CCCCC2)[C@@H](C)CN([C@@H](C)CO)C(=O)c2cc(NC(=O)C3CCCCC3)ccc2O1
[31] C[C@H]1CN([C@@H](C)CO)C(=O)c2cc(NC(=O)Cc3ccccc3)ccc2O[C@H]1CN(C)C(=O)Nc1cccc2ccccc12
[32] O=C(C[C@@H]1C=C[C@H](NS(=O)(=O)c2ccc(F)cc2)[C@H](CO)O1)N1CCC(Cc2ccccc2)CC1

assay / entry	25	26	27	28	29	30	31	32
HIV Env fusion	5[16.7 µM]	19[16.7 µM]	-3[16.7 µM]	-16[16.7 µM]	28[16.7 µM]	0[16.7 µM]	6[16.7 µM]	-3[16.7 µM]
UUG fidelity	-9	4	-7	49	6	16	23	-8

4 entries from above, bar-delimited:
No. | SMILES | HIV Env fusion | UUG fidelity
28 | CCCC(=O)Nc1ccc2c(c1)OC[C@@H](C)N(Cc1ccncc1)C[C@@H](C)[C@@H](OC)CN(C)C2=O | -16[16.7 µM] | 49
32 | O=C(C[C@@H]1C=C[C@H](NS(=O)(=O)c2ccc(F)cc2)[C@H](CO)O1)N1CCC(Cc2ccccc2)CC1 | -3[16.7 µM] | -8
29 | C[C@@H]1CN([C@H](C)CO)C(=O)Cc2cc(NS(=O)(=O)c3ccc(Cl)cc3)ccc2O[C@H]1CN(C)Cc1ccc(Oc2ccccc2)cc1 | 28[16.7 µM] | 6
25 | C[C@H](O)C#Cc1ccc2c(c1)O[C@@H](CN(C)CC1CC1)[C@@H](C)CN([C@@H](C)CO)S2(=O)=O | 5[16.7 µM] | -9

(continued)
[33] CO[C@@H]1CN(C)C(=O)c2cc(NS(C)(=O)=O)ccc2OC[C@H](C)N(Cc2nccs2)C[C@H]1C
[34] C[C@H]1CN([C@@H](C)CO)C(=O)c2cc(NC(=O)CCCN(C)C)ccc2O[C@H]1CN(C)CC1CCCCC1
[35] C[C@@H]1CN([C@H](C)CO)C(=O)c2cc(-c3cccc(C(=O)N(C)C)c3)cnc2O[C@H]1CN(C)C(=O)Cc1ccccn1
[36] CCCNC(=O)N(C)C[C@@H]1Oc2ncc(C3=CCCCC3)cc2C(=O)N([C@@H](C)CO)C[C@H]1C
[37] COCCNC(=O)C[C@H]1C[C@H]2c3cc(NC(=O)COC)ccc3O[C@H]2[C@@H](CO)O1
[38] Cc1noc(C)c1NC(=O)N(C)C[C@@H]1OCCCC[C@H](C)Oc2ccc(NC(=O)Nc3ccc(F)cc3)cc2C(=O)N([C@@H](C)CO)C[C@@H]1C
[39] O=C(C[C@@H]1C=C[C@@H](NS(=O)(=O)c2ccccc2)[C@@H](CO)O1)NCc1ccncn1
[40] C[C@@H]1CCCCO[C@@H](CN(C)Cc2ccncc2)[C@@H](C)CN([C@@H](C)CO)C(=O)c2cc(NS(=O)(=O)c3ccccc3)ccc2O1

assay / entry	33	34	35	36	37	38	39	40
HIV Env fusion	-7[16.7 µM]	19[16.7 µM]	-11[16.7 µM]	-10[16.7 µM]	-2[16.7 µM]	3[16.7 µM]	-20[16.7 µM]	-12[16.7 µM]
UUG fidelity	-2	-15	7	10	-7	-8	-1	9

[41] CCNC(=O)Nc1ccc2c(c1)C(=O)N(C)[C@@H]1CC[C@@H](CC(=O)Nc3ccccc3)O[C@@H]1CO2
[42] Cc1noc(C)c1S(=O)(=O)Nc1ccc2c(c1)CC(=O)N([C@@H](C)CO)C[C@@H](C)[C@@H](CN(C)CC1CCCCC1)O2
[43] COc1ccc(NC(=O)Nc2ccc3c(c2)C(=O)N([C@@H](C)CO)C[C@H](C)[C@@H](CN(C)S(=O)(=O)c2ccc(Cl)cc2)OCCCC[C@@H](C)O3)cc1
[44] C[C@@H]1CN([C@@H](C)CO)C(=O)c2cccc(NS(=O)(=O)c3ccccc3)c2O[C@@H]1CN(C)Cc1ccc(C(=O)Nc2ccccc2N)cc1
[45] CN(C)CC(=O)N[C@@H]1CC[C@H](CCn2cc(CN(C)C)nn2)O[C@H]1CO
[46] C[C@@H]1CN([C@H](C)CO)C(=O)c2cccc(NS(=O)(=O)c3ccc(F)cc3)c2O[C@@H]1CN(C)C(=O)Nc1ccc(C(F)(F)F)cc1
[47] O=C(NCC[C@H]1CC[C@@H](NS(=O)(=O)Cc2ccccc2)[C@@H](CO)O1)C1CCOCC1
[48] Cc1ccc(S(=O)(=O)N(C)C[C@H]2OCCCC[C@H](C)Oc3ccc(NC(=O)Cc4ccccc4)cc3C(=O)N([C@@H](C)CO)C[C@@H]2C)cc1

assay / entry	41	42	43	44	45	46	47	48
HIV Env fusion	16[16.7 µM]	11[16.7 µM]	10[16.7 µM]	-116[16.7 µM]	7[16.7 µM]	-4[16.7 µM]	13[16.7 µM]	-92[16.7 µM]
UUG fidelity	21	2	-5	2	-6	-5	28	13

[49] CC(C)C#Cc1ccc2c(c1)O[C@@H](CN(C)CC1CCOCC1)[C@H](C)CN([C@@H](C)CO)S2(=O)=O
[50] COc1ccccc1C#Cc1ccc2c(c1)O[C@@H](CN(C)Cc1ccccc1)[C@H](C)CN([C@@H](C)CO)S2(=O)=O
[51] C[C@@H]1CCCCO[C@H](CN(C)S(=O)(=O)c2ccc(Cl)cc2)[C@@H](C)CN([C@H](C)CO)C(=O)c2cc(NS(=O)(=O)c3ccccc3)ccc2O1
[52] CC(C)NC(=O)N[C@H]1CC[C@@H](CC(=O)NCc2ccc(Oc3ccccc3)cc2)O[C@H]1CO
[53] CCCC#Cc1cnc2c(c1)C(=O)N([C@H](C)CO)C[C@H](C)[C@@H](CN(C)Cc1ccncc1)O2
[54] C[C@H](CO)N1C[C@H](C)[C@@H](CN(C)C(=O)C2CCOCC2)Oc2ncc(C#CC(C)(C)O)cc2C1=O
[55] N#C[C@H]1[C@@H](c2ccc(C#CC3CCCC3)cc2)[C@H](CO)N1C(=O)Nc1ccc(F)cc1
[56] C[C@H]1CN([C@@H](C)CO)S(=O)(=O)c2ccc(-c3cccnc3)cc2O[C@@H]1CN(C)C(=O)NC1CCCC1

assay / entry	49	50	51	52	53	54	55	56
HIV Env fusion	35[16.7 µM]	19[16.7 µM]	-2[16.7 µM]	25[16.7 µM]	2[16.7 µM]	-14[16.7 µM]	-11[16.7 µM]	-14[16.7 µM]
UUG fidelity	-5	7	-4	32	4	0	-21	-6

[57] Cc1noc(C)c1S(=O)(=O)Nc1ccc2c(c1)C(=O)N([C@@H](C)CO)C[C@H](C)[C@@H](CN(C)C(=O)Nc1ccccc1)O2
[58] C[C@@H](NC(=O)C[C@H]1C=C[C@H](NC(=O)c2cccnc2)[C@@H](CO)O1)c1ccccc1
[59] COc1ccc(NC(=O)N(C)C[C@@H]2OCCCC[C@@H](C)Oc3ccc(NC(=O)NC4CCCCC4)cc3C(=O)N([C@@H](C)CO)C[C@@H]2C)cc1
[60] C[C@H](CO)N1C[C@H](C)[C@@H](CN(C)Cc2ccncc2)OCCCC[C@H](C)Oc2ccc(NC(=O)CCC(F)(F)F)cc2C1=O
[61] C[C@@H]1CN([C@@H](C)CO)C(=O)c2cccc(NC(=O)Nc3ccc(F)cc3)c2O[C@H]1CN(C)S(=O)(=O)c1cccs1
[62] CC(C)C#Cc1ccc2c(c1)O[C@H](CN(C)Cc1ccccc1)[C@H](C)CN([C@H](C)CO)S2(=O)=O
[63] COc1ccc(NC(=O)N(C)C[C@@H]2OCCCC[C@H](C)Oc3ccc(NC(=O)Nc4ccccc4)cc3C(=O)N([C@@H](C)CO)C[C@@H]2C)cc1
[64] COc1ccc(CN(C)C[C@H]2OCCCC[C@@H](C)Oc3ccc(N(C)C)cc3C(=O)N([C@@H](C)CO)C[C@@H]2C)cc1

assay / entry	57	58	59	60	61	62	63	64
HIV Env fusion	19[16.7 µM]	43[16.7 µM]	-15[16.7 µM]	-9[16.7 µM]	11[16.7 µM]	40[16.7 µM]	-33[16.7 µM]	-93[16.7 µM]
UUG fidelity	-5	-9	-21	-3	14	2	-14	-6

Not all compounds are listed; rates above refer to the full screens.
